Source: PubChem (National Center for Advancing Translational Sciences (NCATS))
MARV entry inh = qHTS for inhibitors of binding or entry into cells for Marburg Virus | Marburg virus pseudotyped entry inhibition, cell reporter; control for the full effect not named in the record; about a third of the inactives were read at about 46 µM | Potency, µM (titrated, usually from 37.8 µM), for inactives: at the top dose activity change, negative = inhibition, actives largely listed as inhibitors | hit rate 1.8% among 300,000; active = well fitted inhibition curve with a large enough effect; inconclusive = small, poorly fitted or top-dose-only effect, or effect the other way; inactive = flat fitted curve, though single readings scatter; tested in HEK293 cells; about a fifth of its hits are not listed in these tables; note: % is set by controls: 0 for no effect and ±100 for the full control effect; luciferase read-out
StopGo reporter = High Throughput Screening for Foot and Mouth Disease Virus Antivirals; hit rate 1.2% among 410,000; AID 1159524, 2015; Potency, µM (titrated, usually from 57.9 µM), for inactives: top-dose signal change, negative = less light; human cells with a luciferase reporter of 2A StopGo recoding; control for the full effect not named in the record; active = well fitted falling curve with a large enough effect; inconclusive = small, poorly fitted or top-dose-only effect; inactive = no such curve, though single readings can be large or run the other way; tested in HEK293T cells; note: % is set by controls: 0 for no effect and ±100 for the full control effect; nearly all actives have a fitted effect of over 45% in size; luciferase light after 4 h
Cruzain inh noDet = qHTS Assay for Promiscuous and Specific Inhibitors of Cruzain (without detergent); purified cruzain, Z-FR-AMC fluorescence, no detergent; Potency, µM, for inactives: max response, negative = inhibition, usual class: inhibitors; hit rate 2.3% among 200,000;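 note: plate controls were enzyme without inhibitor for no effect and buffer without enzyme for full effect; nearly all actives have a fitted effect of over 40% in size; top concentration of the series not given in the record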
Target sequence (P25779 123-467 limits assumed): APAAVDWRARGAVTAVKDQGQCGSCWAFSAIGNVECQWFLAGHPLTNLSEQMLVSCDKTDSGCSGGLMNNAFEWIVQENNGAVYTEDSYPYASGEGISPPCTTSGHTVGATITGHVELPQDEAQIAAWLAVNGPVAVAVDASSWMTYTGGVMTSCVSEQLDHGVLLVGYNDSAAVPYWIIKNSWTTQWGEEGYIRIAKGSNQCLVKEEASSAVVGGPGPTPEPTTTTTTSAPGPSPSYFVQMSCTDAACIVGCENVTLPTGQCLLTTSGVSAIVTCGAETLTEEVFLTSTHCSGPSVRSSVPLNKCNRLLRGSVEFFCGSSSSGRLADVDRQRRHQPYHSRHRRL
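Purified cruzain at 1.5 nM, pre-incubated 15 min with compound at room temperature in 100 mM sodium acetate pH 5.5, 5 mM DTT, 0.00005% Triton X-100. Reaction started with 2 uM Z-FR-AMC; AMC fluorescence increase over 60 s gives rate.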
Lassa entry inh = qHTS for Inhibitors of binding or entry into cells for Lassa Virus; Lassa virus pseudotype entry inhibition, cell reporter; control for the full effect not named in the record; Potency, µM (top dose mostly 37.9 µM), without a hit: top-dose activity change, negative = inhibition, hits mostly inhibitors; hit rate 1.2% among 300,000; AID 540256, 2011; active means well fitted inhibition curve with a large enough effect; inconclusive means small, poorly fitted or top-dose-only effect, or effect the other way; inactive means flat fitted curve, though single readings scatter; tested in HEK293 cells; note: % is set by controls: 0 for no effect and ±100 for the full control effect; nearly all actives have a fitted effect of over 50% in size; luciferase read-out
SARS PLP yeast = qHTS of Yeast-based Assay for SARS-CoV PLP; S. cerevisiae expressing SARS-CoV PLpro, growth rescue; control for the full effect not named in the record; Potency, µM (highest dose often 32.9 µM), without a hit: top-dose activity, positive = growth rescue; hit rate 0.19% among 330,000; AID 485353, 2010; active means well fitted rising curve with a large enough effect; inconclusive means small, poorly fitted or top-dose-only effect; inactive means no such curve, though single readings can be large or run the other way; note: 0% is about no effect; nearly all actives have a fitted effect of over 55% in size; growth read by luminescence after 48 h
Cruzain inh Det = qHTS Assay for Promiscuous and Specific Inhibitors of Cruzain (with detergent). Cruzipain (Trypanosoma cruzi), P25779. purified cruzain, Z-FR-AMC fluorescence, 0.01% Triton. hit rate 0.43% among 200,000. Potency, µM, inactives show max response, negative = inhibition, most hits filed as inhibitors. AID 1478, 2009;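 note: plate controls were neutral wells for no effect and buffer without enzyme for full effect; nearly all actives have a fitted effect of over 40% in size; top concentration of the series not given in the record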
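Detergent-containing arm of a paired screen for aggregation-based inhibition: 0.01% Triton X-100 present. Cruzain at 1.5 nM cleaved 2 uM Z-FR-AMC at pH 5.5 with 5 mM DTT; AMC fluorescence gain over 60 s measured activity.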
NS1 inh = qHTS Assay for Inhibitors of Influenza NS1 Protein Function | S. cerevisiae slowed by influenza A NS1, growth recovery by OD600 | Potency, µM (highest dose often 46.1 µM), inactives show at the top dose activity, positive = more growth | hit rate 0.4% among 270,000 | AID 2326, 2010; active means well fitted rising curve with a large enough effect; inconclusive means small, poorly fitted or top-dose-only effect; inactive means no such curve, though single readings can be large or run the other way; note: nearly all actives have a fitted effect of over 50% in size
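S. cerevisiae expressing influenza A NS1, grown in glucose, washed, then diluted 1:100 into pH 6.0 -URA galactose medium with 23 nl compound. Growth recovery read as OD600; NS1-free strain serves as control.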
RE007 growth inh = qHTS Assay for Inhibitors of the HIV-1 protein Vpr | hit rate 0.21% among 360,000 | Potency, µM (series often up to 92.2 µM), for the others: at the top dose activity change, negative = less growth | S. pombe RE007 Vpr strain, BacTiter-Glo ATP luminescence, 24 h; control for the full effect not named in the record | AID 651644, 2012; active = well fitted falling curve with a large enough effect; inconclusive = small, poorly fitted or top-dose-only effect; inactive = no such curve, though single readings can be large or run the other way;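 note: % is set by controls: 0 for no effect and ±100 for the full control effect; nearly all actives have a fitted effect of over 50% in size; the assay follows cell death caused by Vpr and the record does not say whether a fall means rescue or toxicity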
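Fission yeast RE007 carrying one integrated HIV-1 vpr copy, seeded at OD 0.01 in PMG+AL medium with 23 nL pinned compound. Grown 24 h at 30 degrees; viability read by BacTiter-Glo luminescence after 5 min.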
Numbers without * were called inactive; ? = inconclusive; · = no result given; [ ] = remark or other dose. Unless noted, calls come from the whole dose curve; as a rule, active = well fitted curve in the direction sought with a large enough effect; inconclusive = small, poorly fitted or top-dose-only effect, or another doubt; inactive = no such curve, though single readings can be large; an effect the other way counts as inactive or inconclusive. Potency is the fitted concentration of half-maximal effect. Hits appear at their usual frequency; any-hit rate near 4.7%.

Results follow in this order: MARV entry inh, StopGo reporter, Cruzain inh noDet, Lassa entry inh, SARS PLP yeast, Cruzain inh Det, NS1 inh, RE007 growth inh
> O=C(O)CCn1ccc2cc(S(=O)(=O)N3CCCCC3)ccc21
  ?, -11%, 19%, 16%[46.1 µM], ·, 2.2%, ·, ·
> CNC(=O)N(O)C1N(NC(=O)Nc2cccc3ccccc23)C(=S)SC1(C)C (stereo not given)
  4%, -14%, 16%, -12%, ?, -3.4%, 7%, 0%
> O=[N+]([O-])c1ccc(-c2cnc3ccccc3n2)cc1
  ?, 84%[activator], ·, 20%, 1%, ·, -4%, 6%
> CCOc1ccc(C2C(C#N)=C(N)Oc3cc(C)oc(=O)c32)cc1 (stereo not given)
  0%[46.1 µM], -2%, ·, 16%, 0%, ·, 3%, -2%
> CCc1ccc(NC(=O)Nc2cc(C(=O)O)ccc2N2CC3CC(C2)c2cccc(=O)n2C3)cc1 (stereo not given)
  ·, -10%, ·, ·, 10%, ·, 23%, -8%
> N#Cc1ccc(Oc2ccc(S(=O)(=O)N3CCOCC3)cn2)cc1
  -20%, -15%, ·, 1%, 0%, ·, ·, 14%
> Cc1nc(N(C)C)ncc1C(=O)O
  ?, -6%, 13%, 4%, 4%, -3.4%, 12%, -7%
> Cc1nc2scc(-c3ccc(C(C)(C)C)cc3)c2c(=O)n1N
  ?, -28%, ·, 1%[46.1 µM], -1%, ·, ·, -5%
> CN1CCN(S(=O)(=O)c2ccc(Sc3nnnn3-c3ccccc3)c([N+](=O)[O-])c2)CC1
  ?, 20µM*, -4%, 15%, -4%, -3.3%, 8%, -10%
> O=c1[nH]c(-c2ccncc2)nc2ccccc12
  11%[46.1 µM], 12%, -21%, 2%, -9%, -1.2%, -89%, -21%
> Cc1cccn2cc(-c3ccc(S(=O)(=O)N4CCCCC4)cc3)nc12
  ?, -9%, ·, ?, -2%, ·, 1%, -13%
> CCC(C)NC(=O)Cn1cnc2sc(C)c(S(=O)(=O)N3CCCCC3)c2c1=O (stereo not given)
  -2%[46.1 µM], -1%, ·, ?, 0%, ·, 2%, -13%
> CCN(CC)CC#CC(C)OCOCC#CCOC (stereo not given)
  18%, ·, -1%, 6%, 7%, 3.7%, 11%, 9%
> COc1ccc(CC(=O)NCc2ccccc2)cc1
  ·, -1%, ·, ·, 2%, ·, 16%, 5%
> CC(=O)NCc1nc2ccccc2n1C(C)C
  ·, -22%, 4%, ·, -5%, 3.1%, 3%, -9%
> CC(C)CN1CCN(Cc2ccc(F)cc2Cl)CC1CCO (stereo not given)
  ·, -27%, ·, ·, 1%, ·, -4%, -4%
> FC(F)Sc1ccc(NC(=S)NC2CCCC2)cc1
  0%[46.1 µM], 30%[activator], ·, 7%, 9%, ·, ·, -1%
> Cc1cc(N2CCN(c3nc(-c4ccccc4)cs3)CC2)c2ccccc2n1
  -15%, 28µM*, ·, ?, 0%, ·, 0%, -7%
> CC(Cc1ccccc1)NC(N)=O (stereo not given)
  -2%[46.1 µM], 1%, ·, 1%[46.1 µM], -1%, ·, 10%, 2%
> Cc1ccc(C(=O)NC(=S)N2CCN(c3cc(C)ccc3C)CC2)cc1
  3%, -8%, ·, ?, 6%, ·, 19%, 6%

Brought forward from above: 5 compounds, then new ones.
Results follow in this order: MARV entry inh, StopGo reporter, Cruzain inh noDet, Lassa entry inh, SARS PLP yeast, Cruzain inh Det, NS1 inh, RE007 growth inh
> CC(C)CN1CCN(Cc2ccc(F)cc2Cl)CC1CCO (stereo not given)
  ·, -27%, ·, ·, 1%, ·, -4%, -4%
> FC(F)Sc1ccc(NC(=S)NC2CCCC2)cc1
  0%[46.1 µM], 30%[activator], ·, 7%, 9%, ·, ·, -1%
> Cc1cc(N2CCN(c3nc(-c4ccccc4)cs3)CC2)c2ccccc2n1
  -15%, 28µM*, ·, ?, 0%, ·, 0%, -7%
> CC(Cc1ccccc1)NC(N)=O (stereo not given)
  -2%[46.1 µM], 1%, ·, 1%[46.1 µM], -1%, ·, 10%, 2%
> Cc1ccc(C(=O)NC(=S)N2CCN(c3cc(C)ccc3C)CC2)cc1
  3%, -8%, ·, ?, 6%, ·, 19%, 6%
> Cc1nc2cc(CC(=O)O)ccc2o1
  17%, 30%[activator], 11%, ?, 5%, 15%, 2%, 9%
> CCC(=NCc1ccc2c(c1)OCO2)c1c(O)n(C)c(=O)n(C)c1=O
  ?, ?, -8%, ?, 3%, 1.4%, -39%, -4%
> CC1CCc2c(C(=O)NCCCN3CCOCC3)csc2C1 (stereo not given)
  -14%, ·, -2%, -5%, -13%, 0.9%, 1%, -1%
> CC(=O)C1=C(OC(=O)C(C)C)c2ccccc2S(=O)(=O)N1Cc1ccccc1
  -23%[46.1 µM], -9%, -1%, 0%[46.1 µM], ·, -10%, ·, ·
> Cc1cccc2cc(C3CC(c4cccs4)=NN3C(=O)CCC(=O)O)c(Cl)nc12 (stereo not given)
  8%, -7%, 27%, 1%, 5%, -5.8%, -2%, -2%
> Cc1c(C(=O)Nc2ccc(OCc3ccccc3)cc2)cccc1[N+](=O)[O-]
  -23%, -11%, ?, -20%[14.3 µM], 2%, 6.7%, 12%, 7%
> Oc1ccc(-c2csc(-c3cccnc3)n2)c(O)c1
  ?, -13%, ·, -24%, -5%, ·, ·, 3%
> CC(C)Cn1cnc2c1c(=O)n(CC(=O)O)c(=O)n2Cc1ccccc1
  -1%[46.1 µM], 2%, ·, ·, 3%, ·, 0%, 26%
> NC(=O)C1=C[C@H](c2csc3ccccc23)C[C@H](OCc2ccc(CO)cc2)O1
  ·, -5%, ·, ·, -1%, ·, -2%, 3%
> CC(=O)C(=Nc1ccccc1Cl)NNc1ccc(Cl)cc1
  -29%, -21%, -2%, ?, -115%, -1.3%, ?, -6%
> COc1ccc(Cl)cc1N(C(C)C(=O)O)S(C)(=O)=O (stereo not given)
  ?, -5%, ·, -1%, 0%, ·, 5%, -6%
> CC(=O)c1cccc(NC(=O)N2CCCC2C(=O)NC2CCCC2)c1 (stereo not given)
  4%[46.1 µM], 10%, ·, ·, -3%, ·, 1%, -5%
> O=C(CN1CCCC1)NCC12CC3CC(CC(C3)C1)C2
  ?, ·, -3%, 4%, 0%, 6.0%, ?, 6%
> CC(=O)Nc1cccc(C(=O)OC(C(=O)c2ccc(C)c(C)c2)c2ccccc2)c1 (stereo not given)
  ?, ?, ?, ?, -28%, -4.1%, -71%, 16%
> CC(=O)Nc1ccc(-c2cn3ccsc3n2)cc1
  -22%, 43%[activator], -5%, ?, 19%, -1.4%, -15%, -18%
> CCOc1cc(Br)c(/C=C2/C(=O)N(C)C(=S)N2CC(=O)OC)cc1OC
  26%[46.1 µM], -30%, ·, -4%, 0%, ·, -7%, 1%
> Nc1nc(SCc2ccccc2)c2ncn(C3CCCO3)c2n1 (stereo not given)
  ?, 34%[activator], ·, ?, ·, ·, ·, 7%
> O=C(NC1CCCCC1)c1ccc2c(c1)N(Cc1cccc(F)c1)C(=O)c1ccccc1S2
  ·, -4%, -27%, 6%[46.1 µM], ·, -2.8%, ·, ·
> Cc1ccc(C2=NNC(C(O)C(O)C(O)C(O)CO)S2)cc1 (stereo not given)
  15%[46.1 µM], 63%[activator], -2%, 8%, -3%, -2.6%, -8%, -7%
> c1ccc(OCc2nnc3sc(-c4cccs4)nn23)cc1
  -5%, ?, -10%, ?, -5%, -2.9%, -72%, -20%
> O=C(Cn1cnc2nc3c(cc2c1=O)CCCC3)N1CCN(c2ccccc2)CC1
  ·, -22%, -5%, ?, ·, -2.6%, ·, ·
> Cc1cc(C)c2oc(C(=O)Nc3c(C(=O)Nc4ccccc4)oc4ccccc34)cc(=O)c2c1
  4%[46.1 µM], 0%, 1%, 17%[46.1 µM], ·, -1.9%, ·, ·
> Cc1cc(C)nc(NC(=O)CSc2nnnn2-c2ccccc2)n1
  ?, 13%, -1%, 0%, 10%, 5.5%, -3%, 6%
> Cc1cccc(C(=O)Nc2c(-c3ccc(F)cc3)nc3ccccn23)c1
  ?, 0%, 3%, -7%[46.1 µM], ·, -3.0%, ·, ·
> S=c1nc(C2CCCCC2)[nH]c2ccccc12
  ?, 8%, ·, 12%[46.1 µM], 0%, ·, 3%, 3%
> COc1ccc(C(OC(=O)c2c(C)noc2C)C(=O)NC2CCCC2)cc1 (stereo not given)
  13%, -7%, -1%, -12%, 1%, 5.3%, -30%, -7%
> CCO[C@@H]1OC(C(=O)N2CCN(Cc3ccc4c(c3)OCO4)CC2)=C[C@H](c2ccc3c(c2)OCO3)[C@H]1CCCO
  ·, -20%, ·, ·, -1%, ·, -13%, 4%
> Cc1ccc(Cl)cc1N1CCN(C(=O)c2cc(S(=O)(=O)N3CCCC3)c[nH]2)CC1
  ·, -6%, ?, 3%[46.1 µM], ·, -4.0%, ·, ·
> COc1ccccc1-n1c(SCC(=O)Nc2cccc3ccccc23)nc(O)cc1=O
  -2%, -5%, -6%, -9%, 16%, -9.2%, ?, -17%
> COC(=O)CSc1nc2ccc(C)cc2[nH]1
  20%, 14%, 0%, 16%, -3%, 0.9%, 6%, -14%
> Cc1cccc(Cl)c1NNC(=O)Nc1c([N+](=O)[O-])c(C)nn1C
  ?, -21%, ·, 11%[46.1 µM], 0%, ·, -4%, 7%
> O=C(c1ccccc1)c1nnc(-c2ccccc2F)o1
  ?, 39%[activator], 9%, ?, 1%, -0.8%, -1%, -23%
> Cc1ccc(C(=O)CCC(=O)N(C)CC(=O)Nc2c(Cl)cccc2Cl)cc1
  10%, -2%, ·, -12%, 6%, ·, 11%, 4%
> CCn1c(SC(C)C(=O)Nc2nccs2)nnc1-c1ccncc1 (stereo not given)
  6%, 0%, ·, -8%, 3%, ·, 2%, 1%
> CCOP(=O)(OCC)c1cc(C)c(O)c(C(C)(C)C)c1
  ·, -24%, ·, ·, -3%, ·, 0%, -14%
